Screens from PubChem.
GALR2 agonist: GALR2 (human) receptor agonism; O43603; GALR2-expressing cells, agonist activation read-out; activation, %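 (tested at 5 µM)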; actives 0.48% (n = 140,000);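 active = above mean plus 3 SD of all compounds, about 5% in these data, not always enough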;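 also: 0% = vehicle buffer wells and 100% = reference agonist at full effect; tested in CHO reporter cells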
Target sequence (O43603 whole entry, looked up): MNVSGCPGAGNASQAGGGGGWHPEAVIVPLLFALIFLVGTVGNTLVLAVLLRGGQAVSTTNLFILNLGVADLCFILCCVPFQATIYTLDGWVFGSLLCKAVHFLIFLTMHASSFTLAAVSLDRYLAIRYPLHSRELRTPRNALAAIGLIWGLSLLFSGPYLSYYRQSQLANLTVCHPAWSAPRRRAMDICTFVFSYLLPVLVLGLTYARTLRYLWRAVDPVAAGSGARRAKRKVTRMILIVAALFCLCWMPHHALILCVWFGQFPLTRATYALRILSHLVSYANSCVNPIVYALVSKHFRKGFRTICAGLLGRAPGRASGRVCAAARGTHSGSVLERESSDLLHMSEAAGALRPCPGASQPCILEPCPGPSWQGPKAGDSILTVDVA
HSV replic up: HSV replication enhancement | HSV replication augmentation in cells, fold increase | maximum fold increase | actives 0.005% (n = 220,000);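 active = peak rise of 1.5-fold or more in the series; tested in PC3 cells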;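 also: first round at 10 µM; read as green reporter fluorescence; hits show the peak of a series up to 25 µM; 1 = signal of infected wells without compound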
Insulin prom inh: TRM-6 insulin promoter activity inhibition; TRM-6 cells (human fetal islet line), insulin promoter-eGFP reporter, imaging; reporter expression induced with tamoxifen; inhibition, % at 2 µM; actives 0.9% (n = 130,000); AID 1273;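 active = inhibition above the mean plus 3 SD, with well images judged a real hit on visual review, cut at about 60% in these data, passing the limit was not always enough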
PKD1 inh: inhibitors of human PKD1 kinase; inhibition, %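 (about 10 µM by stock and volumes)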; actives 0.056% (n = 200,000); PKD1 kinase fluorescence polarization assay; Q15139; AID 797;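 active = inhibition of 50% or more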;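 also: controls were vehicle for no effect and a reference inhibitor for full effect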
RGS16-Gao: regulators of human RGS16-Galphao interaction | bead-based flow cytometry RGS16-Galphao binding, fluorescence; actives lie on both sides | actives 0.38% (n = 220,000) | O15492+P09471 | AID 1441 | binding response (% of control), % at 10 µM;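 active = below 25% or above 175%, edge rows of some plates excepted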;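 also: Galphao activated by GDP with aluminum fluoride before binding; 100% = wells without compound and 0% = beads without RGS; some results beyond the cut were filed as inactive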
Target sequence (O15492 whole entry, looked up): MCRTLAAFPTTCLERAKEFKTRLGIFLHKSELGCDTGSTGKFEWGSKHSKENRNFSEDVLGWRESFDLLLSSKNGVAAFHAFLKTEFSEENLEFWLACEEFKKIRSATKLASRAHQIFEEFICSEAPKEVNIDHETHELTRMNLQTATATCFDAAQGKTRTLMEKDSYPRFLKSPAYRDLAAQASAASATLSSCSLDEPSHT
Target sequence (P09471 whole entry, looked up): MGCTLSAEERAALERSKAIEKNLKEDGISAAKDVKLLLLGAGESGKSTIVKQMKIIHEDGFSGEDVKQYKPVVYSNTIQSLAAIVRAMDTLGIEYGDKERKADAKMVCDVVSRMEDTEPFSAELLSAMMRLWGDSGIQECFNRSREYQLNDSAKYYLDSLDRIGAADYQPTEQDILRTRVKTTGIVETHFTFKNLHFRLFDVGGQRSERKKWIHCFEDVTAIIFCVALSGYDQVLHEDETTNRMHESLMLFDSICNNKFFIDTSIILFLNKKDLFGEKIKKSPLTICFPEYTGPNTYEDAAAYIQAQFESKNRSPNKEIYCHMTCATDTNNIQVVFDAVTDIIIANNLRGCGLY
Insulin prom inh cell count: also measured in Insulin prom inh; calls as there; normalized cell count, %; measured here: cell count, toxicity; reference of the scale not given here;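 cells exposed to compound for 48 h; stained nuclei by imaging scaled within each plate; lower means fewer cells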
HSV replic up primary fold: also measured in HSV replic up; calls as there; fold increase; compound at 10 µM; measured here: primary screen fold increase 10 uM; tested in PC3 cells;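 GFP signal in the first replicate; 1 = infected wells without compound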
Active calls of the source: *; i = inactive; / = no result given; & = joins results of further samples. The order is random; overall some 1.3% were active at least once.

The opening five compounds, ahead of the listing:
SMILES	GALR2 agonist	HSV replic up	HSV replic up primary fold	Insulin prom inh	Insulin prom inh cell count	PKD1 inh	RGS16-Gao
COC(=O)c1cc2occc2n1Cc1nc(-c2ccccc2F)oc1C	/	i	0.95	/	/	/	100
CCOc1ccc2nc(NC(=S)N(C)C)sc2c1	-2.3	i	0.69	34	76	1	57
O=C(/C=C/c1ccc2c(c1)OCO2)NCCSCc1ccc(Cl)cc1	-1.2	i	0.97	20	91	-1	94
COC(=O)C1CCN(C(=O)CCCOc2ccccc2)CC1	-2.1	i	1	-123	90	1	110
Cc1cccc(Oc2c([N+](=O)[O-])c(=O)n(C)c3ccccc23)c1	/	i	0.87	/	/	-10	100

Results, previewed entries included:
SMILES	GALR2 agonist	HSV replic up	HSV replic up primary fold	Insulin prom inh	Insulin prom inh cell count	PKD1 inh	RGS16-Gao
COC(=O)c1cc2occc2n1Cc1nc(-c2ccccc2F)oc1C	/	i	0.95	/	/	/	100
CCOc1ccc2nc(NC(=S)N(C)C)sc2c1	-2.3	i	0.69	34	76	1	57
O=C(/C=C/c1ccc2c(c1)OCO2)NCCSCc1ccc(Cl)cc1	-1.2	i	0.97	20	91	-1	94
COC(=O)C1CCN(C(=O)CCCOc2ccccc2)CC1	-2.1	i	1	-123	90	1	110
Cc1cccc(Oc2c([N+](=O)[O-])c(=O)n(C)c3ccccc23)c1	/	i	0.87	/	/	-10	100
CCN1CCN(S(=O)(=O)c2cccc(S(=O)(=O)N3CCOCC3)c2)CC1	/	i	0.7	/	/	-1	96
CN(C)c1ccc(C(=O)c2ccccc2)cc1	-2.7	i	0.82	40	148	-4	102
COc1ccc(/C(N)=N/OC(=O)CSc2ccc(C)cc2)cc1OC	-2.3	i	0.84	21	97	-1	107
COc1ccc(NC(=S)N2CCN(Cc3ccccc3)CC2)c(OC)c1	/	i	1	/	/	0	97
CCCCn1c(SCC(=O)c2ccc3c(c2)NC(=O)CO3)nc2cc(S(N)(=O)=O)ccc21	/	i	0.92	/	/	6	100
O=[N+]([O-])c1ccc(COc2cccc(CNc3ccc(F)cc3)c2)cc1	-0.3	i	1	/	/	3	156
CC(=O)N(C)C(c1ccc(N(C)C)cc1)c1nnnn1-c1c(C)cccc1C (stereo not drawn)	-1.0	i	0.87	9	98	13	105
CCOC(=O)C(NCc1ccc2c(c1)OCO2)(NC(=O)CC)C(F)(F)F (stereo not drawn)	-1.8	i	1	14	124	0	103
COc1ccc(C2C(C(=O)Nc3ccc(F)cc3)=C(C)Nc3nc(CCCO)nn32)cc1 (stereo not drawn)	-0.6	i	1.1	/	/	2	103
CC1CCCN(C(=O)Cn2c(-c3nonc3N)nc3ccccc32)C1 (stereo not drawn)	-0.7	i	0.99	-7	103	5	99
CS(=O)(=O)NCCSCc1c(Cl)cccc1Cl	-0.8	i	0.85	3	57	-4	101
CCOc1cc(NC(=S)NCC2CCCO2)c(OCC)cc1NC(=O)CC (stereo not drawn)	/	i	1.1	/	/	2	71
CCCn1c(=NC(=O)c2c(-c3c(F)cccc3Cl)noc2C)c(C(=O)OCC)cc2c(=O)n3ccccc3nc21	0.6	i	1	-9	130	12	101
CS(=O)(=O)c1cc([N+](=O)[O-])c(Sc2nc3ccccc3[nH]2)c([N+](=O)[O-])c1	-2.9	i	0.87	9	98	-4	74
c1ccc2cc(Sc3ncnc4c3oc3ccccc34)ccc2c1	-1.1	i	0.91	-11	194	-2	100

By substructure, the compounds so far containing sulfur
SMILES	GALR2 agonist	HSV replic up	HSV replic up primary fold	Insulin prom inh	Insulin prom inh cell count	PKD1 inh	RGS16-Gao
CCOc1ccc2nc(NC(=S)N(C)C)sc2c1	-2.3	i	0.69	34	76	1	57
O=C(/C=C/c1ccc2c(c1)OCO2)NCCSCc1ccc(Cl)cc1	-1.2	i	0.97	20	91	-1	94
CCN1CCN(S(=O)(=O)c2cccc(S(=O)(=O)N3CCOCC3)c2)CC1	/	i	0.7	/	/	-1	96
COc1ccc(/C(N)=N/OC(=O)CSc2ccc(C)cc2)cc1OC	-2.3	i	0.84	21	97	-1	107
COc1ccc(NC(=S)N2CCN(Cc3ccccc3)CC2)c(OC)c1	/	i	1	/	/	0	97
CCCCn1c(SCC(=O)c2ccc3c(c2)NC(=O)CO3)nc2cc(S(N)(=O)=O)ccc21	/	i	0.92	/	/	6	100
CS(=O)(=O)NCCSCc1c(Cl)cccc1Cl	-0.8	i	0.85	3	57	-4	101
CCOc1cc(NC(=S)NCC2CCCO2)c(OCC)cc1NC(=O)CC (stereo not drawn)	/	i	1.1	/	/	2	71
CS(=O)(=O)c1cc([N+](=O)[O-])c(Sc2nc3ccccc3[nH]2)c([N+](=O)[O-])c1	-2.9	i	0.87	9	98	-4	74
c1ccc2cc(Sc3ncnc4c3oc3ccccc34)ccc2c1	-1.1	i	0.91	-11	194	-2	100

Next part.
SMILES	GALR2 agonist	HSV replic up	HSV replic up primary fold	Insulin prom inh	Insulin prom inh cell count	PKD1 inh	RGS16-Gao
CCCCSc1c(C)c2cc3c(cc2[nH]c1=O)OCO3	-3.9	/	/	35	136	-14	103
O=C(CCn1cnc2ccccc2c1=O)Nc1nc(-c2ccc(Br)cc2)cs1	7.9*	i	1.1	/	/	-4	96
Cc1nc2ccccc2c(=O)n1NC(=O)c1ccc(F)cc1Cl	-2.4	i	1.1	54	169	-5	97
CCOc1ccc(/C=C2\CCc3ccccc3C2=O)cc1	/	i	0.9	/	/	/	110
CCSC1=N/C(=C/c2ccsc2)C(=O)N1c1ccccc1	-0.8	i	0.79	27	72	-5	82
CCSc1ncc(Cl)c(C(=O)Nc2sc3c(c2C(=O)NCc2cccnc2)CCCC3)n1	-2.4	i	0.82	/	/	-11	101
O=C(Nc1ccc(F)cc1)C1CCN(c2nnnn2-c2ccccc2)CC1	-2.2	i	0.88	/	/	1	96
COc1ccc(C(=O)OCCN2C(=O)c3ccccc3C2=O)cc1	-3.8	i	0.98	/	/	11	104
COc1cccc(-c2ccc(=O)n(CC(=O)Nc3cc4c(cc3NC(C)=O)OCCO4)n2)c1	-0.1	i	0.97	/	/	1	81
CCC(=O)N1c2ccccc2-c2nnc(SC)nc2OC1c1ccc(N(C)C)cc1 (stereo not drawn)	-0.3	i	1	30	75	-8	109
C=CCN(C(=O)Nc1ccc(F)cc1)C1CC(=O)N(c2ccc(OC)cc2)C1=O (stereo not drawn)	-1.5	i	0.99	-9	105	0	350
N#CC1=C(N)OC2=C(CC/C2=C\c2ccccc2Cl)C1c1ccccc1Cl (stereo not drawn)	1.0	i	1.2	/	/	-6	103
CC(C)C(=O)N1CCN(c2ccc(NC(=O)c3cccs3)cc2Cl)CC1	/	i	0.83	/	/	8	104
Cc1ccc(CNCC(O)(c2ccccc2)c2ccc(Cl)cc2)cc1 (stereo not drawn)	/	i	0.97	0	126	-7	95
C=CCNC(=O)c1ccc([N+](=O)[O-])c(Cl)c1	/	i	0.88	/	/	-6	98
COC(=O)c1cn(NC(=O)c2cccc(OC)c2)c(=O)c2ccccc12	-0.4	i	0.97	24	114	8	98
c1cnc2ncc3sccc3c2c1	-0.7	i	0.96	-43	45	-7	89
COc1ccc(OC)c(-c2csc(NC(=O)C3c4ccccc4Oc4ccccc43)n2)c1	-3.8	i	1	0	130	7	105
CC(C)CN1CCN(CC#Cc2ccccc2)CC1CCO (stereo not drawn)	/	i	0.79	/	/	9	103
COc1cc(-c2[nH]ncc2CN(C)Cc2cc(C)[nH]n2)cc(OC)c1OC	/	i	1.1	/	/	-2	102
CCc1ccc(N2CC(C(=O)Nc3cc(C)ccc3F)CC2=O)cc1 (stereo not drawn)	-0.2	i	0.96	0	140	-2	114
COc1ccc(Nc2cc(C)nc(NCc3ccccc3)n2)cc1	/	i	0.82	/	/	/	100
Cc1c(NC(=O)C(C)Sc2nc3ccccc3c(=O)n2CCO)c(=O)n(-c2ccccc2)n1C (stereo not drawn)	-2.4	i	1	-33	128	-9	92
O=C(O)c1ccc2c(c1)OCCO2	-7.1	i	1	-31	62	0	102
COc1cccc(NC(=O)Nc2cc(NC(=O)Nc3cccc(OC)c3)c(C)nc2C)c1	0.7	i	0.92	-16	142	7	106
CC(=O)c1ccc(N2C(=NC(=O)C(C)C)SC3CS(=O)(=O)CC32)cc1 (stereo not drawn)	-0.1	i	0.94	/	/	-3	111
CC/C(C)=C1\SC(N2CCN(c3cccc(C(F)(F)F)c3)CC2)=NC1=O	0.1	i	0.98	-49	71	-8	101
CN(Cc1ccccc1)Cc1c[nH]c2ccccc12	-2.1	i	0.97	-225	123	3	103
COc1ccccc1NC(=O)c1ccc(C)s1	-1.1	i	1.5	60	92	4	105
Cc1ccccc1Nc1nnc(SCC(=O)c2cc3ccccc3o2)s1	-1.4	i	1.1	38	60	6	118
O=C(CCc1ccccc1)Nc1ccccc1F	-1.2	i	0.91	/	/	3	95
Cc1onc(C(=O)/C=C/N(C)C)c1C(=O)Nc1nccs1	-1.0	i	0.9	20	103	9	69
Cc1ccc(C)c(NC(=O)c2ccccc2NC(=O)C2CCCO2)c1 (stereo not drawn)	/	i	0.96	/	/	1	100
Cn1cc(Cl)c(-c2nc3ccccc3[nH]2)n1	-1.0	i	1	62	116	4	100
CCCn1c(SCC(=O)N2CCCC(C)C2)nnc1-c1ccccn1 (stereo not drawn)	/	i	0.98	/	/	-1	98
Fc1ccccc1NC(=S)Nc1ccc(CN2CCOCC2)cc1	/	i	0.92	/	/	-6	96
COc1ccc(OC)c(/C=N/c2oc(-c3ccco3)c(-c3ccco3)c2C#N)c1	-0.1	i	1.2	/	/	-1	97
Cc1ccc(OCC(=O)NNC(=O)C2CCN(c3nc(C)cc(C)n3)CC2)cc1	-0.9	i	1.1	29	88	-2	104
C/C(CC(=O)N(C(C)C)C(C)C)=N\NC(=O)c1ccccc1Br	-0.4	i	0.89	/	/	4	102
N#C/C(=N\Nc1cccc([N+](=O)[O-])c1)C(=O)c1ccc(Br)cc1	/	i	0.67	/	/	-1	101
CCC(C)NS(=O)(=O)c1ccc(OCC(=O)N2CCCC2)cc1 (stereo not drawn)	-0.7	i	0.73	-438	54	-9	99
COc1ccccc1CNC(=O)C(NS(=O)(=O)c1ccc2c(c1)OCCO2)C(C)C (stereo not drawn)	-0.3	i	1.1	-67	88	-8	15
COc1ccc2c(c1)sc1nc(-c3ccccc3)cn12	-0.4	i	0.66	-142	13	-1	101
COc1cccc(OC)c1C(=O)Nc1nc2cc3c(cc2s1)OCO3	/	i	1.1	/	/	/	103
COc1ccc(CS(=O)(=O)CC2(O)CCN(C(=O)c3cccc(C(F)(F)F)c3)CC2)cc1	/	i	0.92	-11	67	-1	184
O=S(=O)(c1ccc(-c2csc(Nc3ccc(F)cc3)n2)cc1)N1CCCC1	4.8	i	0.93	11	151	0	73
CC(=O)c1ccc(OCC(O)CN2CCN(Cc3ccc4c(c3)OCO4)CC2)cc1 (stereo not drawn)	0.9	i	0.91&0.99	/	/	-7	103&105
O=C1Nc2ccccc2S/C1=C\C(=O)N1CCCC1	/	/	/	0	110	-7	104
CN(C)c1nccc(N(Cc2ccccc2)Cc2ccccc2)c1C#N	-1.3	i	0.92	19	96	-10	104
CC(C)(C)NC(=O)CSc1n[nH]c(=O)n1-c1ccccc1	-0.8	i	1.1	/	/	-17	99
